PINK1 expr mod: changes PINK1 expression; PINK1 immunofluorescence, high-content cytometry, 24 h; Potency, µM (top dose mostly 76.6 µM), inactives show at the top dose activation (PINK1 increase), actives largely listed as activators; 410,000 tested, 0.2% active; AID 624263; active = well fitted activation curve with a large enough effect; inconclusive = small, poorly fitted or top-dose-only effect; inactive = flat fitted curve, though single readings scatter; cell line not stated here;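 further: potency means the concentration at half of the fitted maximal effect; % of control where 0% means no effect; nearly all actives have a fitted effect of over 65% in size; a mitochondrial uncoupler was the plate control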
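PINK1 protein, normally rapidly degraded, was detected by immunofluorescence after 24 hour compound treatment of a stable cell line. Titration data (5 concentrations) came from laser-scanning cytometry, with CCCP-treated wells as controls.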
TRPML1 blocker: inhibitors of human TRPML1 channel; AID 624415; activity change, negative = inhibition, % (concentration not given with the values); 390,000 tested, 0.02% active; TRPML1-inducible cells, Ca2+ dye fluorescence, FDSS; stronger effect = lower value; inhibition of EC80 agonist-evoked calcium signal; in the data active means activity change below about -50%; inconclusive means about -30% to -50%; inactive means above about -30%;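 further: stimulus is agonist 54-4 at its EC80 concentration; on the % scale 0 is the no-effect control and ±100 the full control effect; compound concentration not given in the record; the text of the record puts the active cut at -80%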
Target sequence (Q9GZU1 whole entry, looked up): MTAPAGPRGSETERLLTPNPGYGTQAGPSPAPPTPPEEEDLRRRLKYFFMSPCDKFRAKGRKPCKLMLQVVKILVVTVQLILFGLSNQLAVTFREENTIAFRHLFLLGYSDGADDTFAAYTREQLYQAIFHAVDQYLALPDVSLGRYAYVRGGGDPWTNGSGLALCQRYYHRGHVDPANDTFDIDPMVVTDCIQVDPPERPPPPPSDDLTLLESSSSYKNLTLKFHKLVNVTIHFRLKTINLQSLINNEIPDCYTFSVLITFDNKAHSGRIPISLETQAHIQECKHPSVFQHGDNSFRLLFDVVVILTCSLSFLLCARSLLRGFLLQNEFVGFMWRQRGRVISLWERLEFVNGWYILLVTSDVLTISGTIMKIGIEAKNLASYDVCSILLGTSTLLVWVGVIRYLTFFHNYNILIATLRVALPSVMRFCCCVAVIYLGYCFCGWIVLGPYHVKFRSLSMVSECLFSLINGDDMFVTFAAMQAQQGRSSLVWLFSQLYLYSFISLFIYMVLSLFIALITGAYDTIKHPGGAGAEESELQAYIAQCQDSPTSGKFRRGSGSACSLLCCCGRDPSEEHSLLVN
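TRPML1-DL cells, Tet-induced overnight (~16 h, 37 °C) at 1,500 cells/well, were loaded with Ca8 no-wash dye plus quencher for 45-90 min at room temperature. Compounds were pinned during FDSS kinetic reading; agonist 54-4 at EC80 (4 uM final) then added.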
D2 potentiator: positive allosteric modulators of human D2 dopamine receptor; 360,000 tested, 0.23% active; AID 624464; DiscoveRx D2 beta-arrestin cells, luminescence, 90 min; 100% = 57 uM dopamine signal; P14416; potentiation, % (test concentration not listed); active = potentiation of 50% or more; inconclusive = 30% to 50%; inactive = 30% or less;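 further: compound concentration not given in the record; tested on top of an EC20 dose of dopamine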
Target sequence (P14416 whole entry, looked up): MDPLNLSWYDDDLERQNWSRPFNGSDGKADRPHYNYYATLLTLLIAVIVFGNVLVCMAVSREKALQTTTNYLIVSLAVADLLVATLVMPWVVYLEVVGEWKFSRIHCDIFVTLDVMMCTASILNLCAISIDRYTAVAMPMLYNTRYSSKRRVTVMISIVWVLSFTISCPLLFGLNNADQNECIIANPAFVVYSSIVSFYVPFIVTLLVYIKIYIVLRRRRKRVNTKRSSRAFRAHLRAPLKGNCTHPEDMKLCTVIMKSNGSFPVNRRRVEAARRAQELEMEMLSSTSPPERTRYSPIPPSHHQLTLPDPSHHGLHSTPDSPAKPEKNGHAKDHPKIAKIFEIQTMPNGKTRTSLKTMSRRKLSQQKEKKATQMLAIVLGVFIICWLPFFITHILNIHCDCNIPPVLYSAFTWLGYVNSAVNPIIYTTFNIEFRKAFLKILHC
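D2 cells co-treated with compound plus 50 nM dopamine (EC20) for 90 min at 37 deg C to detect potentiation. Beta-arrestin recruitment was read as enzyme-fragment luminescence after 1 h at ambient temperature. Full response was set by 57 uM dopamine.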
D2 agonist: human D2 receptor agonism in beta-arrestin assay | DiscoveRx PathHunter D2 beta-arrestin, luminescence, 90 min; 100% = 57 uM dopamine signal | activation, % (no concentration beside the values) | 360,000 tested, 0.084% active | AID 624465; in the data active = activation above about 40%; inconclusive = about 15% to 40%; inactive = below about 15%; further: compound concentration not given in the record; the text of the record calls up to 30% inactive
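Agonist mode: compounds alone added to overnight-plated D2 PathHunter cells for 90 min at 37 C, with 57 uM final dopamine (EC100) defining full response. Beta-arrestin recruitment detected by chemiluminescent reagent, read after 1 h at ambient temperature.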
TRPML1 agonist: agonists of human TRPML1 channel; TRPML1-expressing cells, Ca2+ dye fluorescence, FDSS; host cell line not named in the record; reference of the full effect not given here; activation, % (concentration not given with the values); 410,000 tested, 0.12% active; Q9GZU1; in the data active = activation above about 50%; inconclusive = about 30% to 50%; inactive = below about 30%; further: 0% is about no effect; the text of the record puts the active cut at 80%
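Calcium fluorescence on an FDSS kinetic reader gave the read-out. Tet-induced TRPML1-DL cells were plated overnight, dye-loaded (Ca8 with quencher, 45-90 min, room temperature, dark), then read 110 s after compound addition, and again 110 s after 4uM final 54-4 (EC80).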
Six1-Eya2 inh: inhibitors of human Six1/Eya2 interaction; activity change, % (concentration not given with the values); 360,000 tested, 0.56% active; Q15475+O00167; AlphaScreen GST-Six1/His-Eya2 binding, biochemical; stronger effect = lower value; control for the full effect not named in the record; in the data active = activity change below about -65%; inconclusive = about -30% to -65%; inactive = above about -30%; further: on the % scale 0 is the no-effect control and ±100 the full control effect
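Homogeneous AlphaScreen proximity assay pairing GST-Six1 with His-tagged Eya2 (added as 5X mix: 250 nM and 500 nM) in 50 mM Tris pH 8.0, 300 mM NaCl, 1 mM TCEP. Glutathione donor and nickel acceptor beads; 1 h, 37 °C, dark.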
* hit, by the source's call; ? = inconclusive; / = not tested or not shown; & = joins results of further samples; [ ] = remark or other dose.

Preview, 2 compounds:
item	canonical_smiles	PINK1 expr mod	TRPML1 blocker	D2 potentiator	D2 agonist	TRPML1 agonist	Six1-Eya2 inh
1	CCOC(=O)C(NCc1ccc(F)cc1)(NC(=O)c1ccccc1)C(F)(F)F (configuration not stated)	-0.4%	-4	21	0.7	-0.3	11
2	N#CC1(c2ccccc2)CCC(NCCc2ccccc2)CC1 (configuration not stated)	-0.5%	9	-20	-0.3	0.3	1

This part in full, from the start:
item	canonical_smiles	PINK1 expr mod	TRPML1 blocker	D2 potentiator	D2 agonist	TRPML1 agonist	Six1-Eya2 inh
1	CCOC(=O)C(NCc1ccc(F)cc1)(NC(=O)c1ccccc1)C(F)(F)F (configuration not stated)	-0.4%	-4	21	0.7	-0.3	11
2	N#CC1(c2ccccc2)CCC(NCCc2ccccc2)CC1 (configuration not stated)	-0.5%	9	-20	-0.3	0.3	1
3	O=C(Oc1cccc2c(OC(=O)N3CCOCC3)cccc12)N1CCOCC1	-1.1%	1	-1	1.8	0.3	6
4	CN(Cc1ccccn1)Cc1nc(COc2ccccc2)no1	0.6%	-18	-3	1.9	-0.5	4
5	COCCCn1c(-c2ccc(Cl)cc2)n[nH]c1=S	-0.6%	-3	-22	1.5	-0.1	2
6	Cc1cc(C)cc(NC(=O)CCc2nnc3n(C)c(=O)c4sccc4n23)c1	8.8%	6	/	/	-0.2	/
7	O=C(CCC(=O)N1CCc2ccccc2C1)N1CCN(S(=O)(=O)c2ccccc2)CC1	-1.4%[38.3 µM]	7	-2	-1.0	0.3	5
8	Cc1ccc(NC(=O)CSC2=C(C#N)C(c3ccc4c(c3)OCO4)C3=C(CCCC3=O)N2)c(C)c1 (configuration not stated)	0.1%	10	-2	1.6	1.3	-4
9	O=C(NCC1CCCO1)/C(=C/c1ccccc1)NC(=O)c1ccccc1 (configuration not stated)	0.0%	32	-8	-3.6	0.1	1
10	O=C(Nc1ccccc1C(=O)NC1CC1)c1ccc([N+](=O)[O-])o1	-2.0%	3	59*	?	0.2	-6
11	O=C(CCN1CCOCC1)N1CCCC(Nc2cccc(F)c2)C1 (configuration not stated)	2.0%	-4	-12	-5.3	0.7	21
12	Cc1cc(-n2c(C)cc(C(=O)COc3ccc4ccc(=O)oc4c3)c2C)no1	13%	-10	13	-1.1	-0.4	-14
13	CCC(=O)Oc1c(Sc2ccc(Cl)cc2)c(C)nn1C(C)(C)C	4.5%	-1	/	/	-0.1	/
14	O=S(=O)(O)c1cccc2cccnc12	-0.3%	57	/	/	1.2	/
15	COc1cc(OC)c(-c2oc3ccccc3c(=O)c2O)c(OC)c1	15%	-12	-11	-5.4	1.0	-4
16	COc1ccc(OC)c(CN2C(=O)c3ccccc3C2c2nnnn2C(C)C)c1 (configuration not stated)	0.1%	/	/	/	-0.6	5
17	CCOC(=O)N1CCC(Nc2nc3ccccc3nc2NS(=O)(=O)c2ccc(Cl)cc2)CC1	-1.2%[38.3 µM]	0	?	12	-0.4	-3
18	COc1cccc(N2CCN(S(=O)(=O)c3cn(C)cn3)CC2)c1	0.0%	-19	-4	-7.9	-0.3	1
19	CCCCS(=O)(=O)N1CCCC(C(=O)Oc2ccccc2OC)C1 (configuration not stated)	-0.4%	15	-4	7.4	0.0	-10
20	CCn1c2ccccc2c2nnc(SCC(=O)c3ccccc3)nc21	2.6%[38.3 µM]	54	-3	1.8	3.2	-3
21	CC(C)(C)c1ccc(OCCON2C(=O)CCC2=O)c(Cl)c1	7.5%	-7	3	-0.4	0.1	11
22	Cc1ccc(-n2nc3ccc(NC(=O)Cc4ccc(Cl)cc4)cc3n2)cc1	5.4%	7	/	/	-0.3	/
23	COC(=O)c1ccc(Cl)c(-c2ccc(/C=N/NC(=O)Nc3ccccc3)o2)c1	5.9%	-14	-9	-2.0	-1.0	-10
24	CCN1CCSc2ccc(C(=O)NCc3ccccc3C)cc21	-0.2%	-4	-9	-1.5	1.3	-19
25	CCN(CC)S(=O)(=O)c1cccc(-c2cn3cccnc3n2)c1	0.8%	1	-3	-1.1	-0.7	0
26	CCC(C)NS(=O)(=O)c1ccc(N)cc1 (configuration not stated)	-1.7%	-1	0	0.9	-0.4	2
27	COc1ccc(OC)c(C2=NS(=O)(=O)N(C)C(C(=O)N3CCC4(CC3)OCCO4)=C2)c1	-0.8%	16	-3	-1.2	0.0	-2
28	Oc1oc(-c2ccccc2)nc1C=Nc1cccc2ccccc12	/	-8	10	1.3	5.5	54
29	COc1ccc(CCNC(=O)c2cc(Cl)nc3ccccc23)cc1	-0.6%	-8	0	0.6	1.9	12
30	O=C(CSc1nnc(-c2ccco2)n1-c1ccccc1Cl)Nc1cccc(C(=O)O)c1	0.4%	2	-2	-0.2	0.2	-4
31	O=C(NCc1ccccc1)c1cccc(S(=O)(=O)N2CCCCC2)c1	-1.6%	?	-1	3.5	1.3	1
32	CC(C)C(=O)Nc1cccc(C(=O)Nc2nncs2)c1	-1.2%	-1	-2	0.0	-0.5	0
33	CC1=C(C(=O)N2CCOCC2)CC(CC(=O)NC2CC2)C(=O)N1Cc1ccccc1 (configuration not stated)	0.0%	-10	-1	-1.3	0.7	-2
34	OCC1CCCN(C(=S)Nc2ccc(OC(F)F)cc2)C1 (configuration not stated)	-1.8%	-2	-6	-2.0	-0.5	-6
35	C#CCOCCOCCOCCNc1nc(N2CCN(C(=O)[C@H](Cc3ccc(O)cc3)n3cc([C@@H](N)C(C)CC)nn3)CC2)nc(N2CCN(C(=O)[C@H](Cc3cc4ccccc4[nH]3)n3cc([C@@H](N)CC(C)C)nn3)CC2)n1 (some centres not stated)	6.8%	0	-6	-1.6	-0.8	-21
36	O=C(CSCC(=O)Nc1nc(-c2ccc3c(c2)OCO3)cs1)Nc1nccs1	-0.1%	-3	-4	-2.5	0.5	-7
37	Cc1ccc2oc(C(=O)NCc3ncc(C)[nH]3)c(C)c2c1	3.7%	16	-38	-2.8	0.0	-10
38	CCN(CC(=O)Nc1ccc(NC(C)=O)cc1)C(=O)c1ccc(=O)n(C)n1	1.0%	10	5	0.4	0.6	1
39	Cc1cccc(NC(=O)Cn2c(=O)n(-c3ccccc3Cl)c(=O)c3c(C)c(C(=O)N(C)C)sc32)c1	2.8%	-4	/	/	0.4	/
40	Cc1cc(C)n2c(Nc3ccc4c(c3)OCCO4)c(-c3cc4ccccc4o3)nc2n1	1.9%	/	/	/	-0.7	-25
41	COc1ccc(OC)c(CNS(=O)(=O)c2cn(C)cn2)c1	9.5%	-4	1	-1.2	-0.2	7
42	O=C(c1ccoc1)N1CCC2(CC1)Oc1ccc(Cl)cc1C(=O)C21CC(c2cccnc2)=NO1 (configuration not stated)	1.2%	13	-6	-2.4	0.2	1
43	COc1ccc(C2CC(C(F)(F)F)n3nc(CO)c(Cl)c3N2)cc1OC (configuration not stated)	2.1%	1	0	-3.2	0.9	-11
44	COc1cccc(C(=O)c2ccccc2NC(C)=O)c1	1.5%	2	-12	-1.9	-0.5	0
45	Cc1ccc(Cn2c(C)c3cnn(CC(=O)NCCN4CCOCC4)c(=O)c3c2C)cc1	0.9%	-15	-1	-4.1	-0.4	-6
46	C=CCN=c1scc(-c2ccccc2)n1/N=C/c1ccccn1	0.1%&0.9%	40&51	-7&-5	-1.8&1.7	1.7&2.7	?
47	CCNC(=O)CC1C(=O)N(c2ccc(C)cc2)C(=O)N1CCOC (configuration not stated)	5.4%&-0.4%	17&-5	-6	-4.9	-0.1&0.1	0
48	O=C(NCc1ccc(Cl)cc1)c1cc2ccccc2oc1=O	1.7%	10	-5	-0.2	-0.3	4
49	Cc1ccc(-c2nc(C#N)c(NCCc3ccccn3)o2)cc1	0.5%	12	-18	-0.6	-0.1	9
50	Cc1cccc(Nc2nnc(-n3nc(C)cc3C)c3ccccc23)c1	-0.8%	-21	/	/	-0.9	/

Next section:
item	canonical_smiles	PINK1 expr mod	TRPML1 blocker	D2 potentiator	D2 agonist	TRPML1 agonist	Six1-Eya2 inh
51	COc1ccc(S(=O)(=O)N2C(=O)/C(=C3\SC(N)=NC3=O)c3ccccc32)cc1	0.8%	-8	8	9.4	0.8	-14
52	COc1ccccc1N1CCN(CCC(=O)Nc2cccc(Cl)c2)CC1	1.6%	/	-26	-1.6	/	0
53	COc1ccccc1NC(=O)C1CCCN(S(=O)(=O)c2ccccc2)C1 (configuration not stated)	3.8%	71	-10	1.3	1.1	10
54	Cc1ccc(CNC(=O)Cn2c3ncccc3c(=O)n2-c2ccc(C)cc2)cc1	0.5%	6	/	/	2.9	/
55	O=C(NC(Cc1ccccc1)C(=O)N1CCN(S(=O)(=O)c2ccccc2F)CC1)c1ccccc1 (configuration not stated)	1.0%	6	-3	-3.2	0.9	19
56	O=C(O)C1CC(=O)N(Cc2cccs2)C1 (configuration not stated)	13%[38.3 µM]	-7	6	0.1	2.8	2
57	O=C(Nc1ccc(Cl)c(S(=O)(=O)N2CCOCC2)c1)C1CCCC1	-0.1%	-3	-5	8.4	-0.4	9
58	Nc1cnnc(N/N=C\c2ccccc2)c1Cl	0.1%	3	-5	2.6	1.3	-8
59	CCCOc1cc(C)c(S(=O)(=O)n2nnc3ccccc32)cc1C	?	2	3	2.2	0.2	3
60	FC(F)(F)c1ccccc1Cc1c(-c2cccc(Cl)c2)nc2ccc(Cl)cn12	8.6%	12	0	-2.7	1.0	0
61	S=C1NC2(CCCCCC2)N=C1c1ccccc1	1.2%	1	-4	-1.1	-0.9	-3
62	CCn1c(-c2cc(-c3cccc(OC)c3)nc3ccccc23)n[nH]c1=S	7.7%[38.3 µM]	-5	-4	-0.8	1.5	-14

Fetched by structure from above, 2 records:
item	canonical_smiles	PINK1 expr mod	TRPML1 blocker	D2 potentiator	D2 agonist	TRPML1 agonist	Six1-Eya2 inh
52	COc1ccccc1N1CCN(CCC(=O)Nc2cccc(Cl)c2)CC1	1.6%	/	-26	-1.6	/	0
59	CCCOc1cc(C)c(S(=O)(=O)n2nnc3ccccc32)cc1C	?	2	3	2.2	0.2	3

Assay outcomes deposited in PubChem BioAssay by National Center for Advancing Translational Sciences (NCATS).
